CtBP-E1A blk: qHTS Assay for Inhibitors of the CtBP/E1A Interaction | AlphaScreen GST-E1A/His-CtBP binding, 1536-well; stronger effect = lower value; control for the full effect not named in the record | CtBP / adenovirus E1A interaction (AlphaScreen) | 0.49% of 340,000 active | activity change, % (no concentration beside the values); in the data active means activity change below about -65%; inconclusive means about -30% to -65%; inactive means above about -30%; also: % is scaled to controls: 0 for no effect and ±100 for the full control effect; compound concentration not given in the record
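Steps: dispense buffer (Tris pH 8.0, NaCl 300 mM, TCEP 1 mM, BSA, Tween 20); add 5X protein mix (GST-E1A, His-CtBP, 125 nM each); pin 23 nL compound; 2 h at 37 °C, dark; add 5X beads (50 ug/mL); 1 h; read.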
Six1-Eya2 inh: qHTS Assay for Inhibitors of the Six1/Eya2 Interaction; AlphaScreen GST-Six1/His-Eya2 binding, biochemical; stronger effect = lower value; control for the full effect not named in the record; activity change, % (test concentration not listed); 0.56% of 360,000 active; in the data active = activity change below about -65%; inconclusive = about -30% to -65%; inactive = above about -30%; also: % is scaled to controls: 0 for no effect and ±100 for the full control effect; compound concentration not given in the record
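AlphaScreen luminescence read after one hour at 37 °C in darkness. Pin-transferred compounds met GST-Six1 and His-Eya2 protein (5X stock 250 nM/500 nM) plus glutathione donor and Ni-chelate acceptor beads (5X, 50 ug/mL).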
PINK1 modulator: A Quantitative High throughput Screen to Identify Chemical Modulators of PINK1 Expression | PINK1 immunofluorescence, high-content cytometry, 24 h | Potency, µM (titrated, usually from 76.6 µM), for inactives: at the top dose activation (PINK1 increase), usual class: activators | 0.2% of 410,000 active | AID 624263, 2012; active = well fitted activation curve with a large enough effect; inconclusive = small, poorly fitted or top-dose-only effect; inactive = flat fitted curve, though single readings scatter; cell line not stated here;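 also: potency is read from the fitted curve at half-maximal effect; % of control where 0% means no effect; nearly all actives have a fitted effect of over 65% in size; a mitochondrial uncoupler was the plate control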
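PINK1 protein level read as immunofluorescence by microplate cytometer in a fixed, stained stable cell line after 24 h exposure to five compound concentrations, with CCCP as control.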
D2 agonist: Beta-Arrestin HTS for Positive Allosteric Modulators of the Human D2 Dopamine Receptor: Agonists. D(2) dopamine receptor (Homo sapiens), P14416. DiscoveRx PathHunter D2 beta-arrestin, luminescence, 90 min; 100% = 57 uM dopamine signal. activation, % (no concentration beside the values). 0.084% of 360,000 active. AID 624465, 2012; in the data active = activation above about 40%; inconclusive = about 15% to 40%; inactive = below about 15%; also: compound concentration not given in the record; the text of the record calls up to 30% inactive
Target sequence (P14416 whole entry, looked up): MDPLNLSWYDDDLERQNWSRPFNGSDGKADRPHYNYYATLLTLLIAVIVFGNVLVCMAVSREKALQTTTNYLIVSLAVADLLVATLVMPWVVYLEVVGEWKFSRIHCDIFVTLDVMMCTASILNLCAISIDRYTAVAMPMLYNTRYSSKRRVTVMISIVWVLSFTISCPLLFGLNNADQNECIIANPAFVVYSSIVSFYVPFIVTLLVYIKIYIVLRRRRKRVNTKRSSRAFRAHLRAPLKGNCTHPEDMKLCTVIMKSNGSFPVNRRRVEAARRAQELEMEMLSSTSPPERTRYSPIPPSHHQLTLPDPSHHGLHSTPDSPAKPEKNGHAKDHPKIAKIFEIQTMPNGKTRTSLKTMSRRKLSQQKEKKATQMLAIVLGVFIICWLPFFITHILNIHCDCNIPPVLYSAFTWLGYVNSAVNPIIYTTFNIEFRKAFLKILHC
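DiscoveRx PathHunter D2 beta-arrestin cells (2,100/well) attached overnight, then compound-stimulated 90 min at 37 C in HBSS/10 mM HEPES/0.1% Tween-20 buffer; beta-galactosidase complementation read by luminescence after 1 h at ambient temperature. Dopamine 57 uM final (EC100) as control.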
TRPML1 blocker: qHTS for Inhibitors of the Human Mucolipin Transient Receptor Potential 1 (TRPML1). TRPML1-inducible cells, Ca2+ dye fluorescence, FDSS; stronger effect = lower value; inhibition of EC80 agonist-evoked calcium signal. 0.02% of 390,000 active. activity change, negative = inhibition, % (no concentration beside the values). AID 624415, 2012. Mucolipin-1 (Homo sapiens), Q9GZU1; in the data active means activity change below about -50%; inconclusive means about -30% to -50%; inactive means above about -30%;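 also: stimulus is agonist 54-4 at its EC80 concentration; % is scaled to controls: 0 for no effect and ±100 for the full control effect; compound concentration not given in the record; the text of the record puts the active cut at -80%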
Target sequence (Q9GZU1 whole entry, looked up): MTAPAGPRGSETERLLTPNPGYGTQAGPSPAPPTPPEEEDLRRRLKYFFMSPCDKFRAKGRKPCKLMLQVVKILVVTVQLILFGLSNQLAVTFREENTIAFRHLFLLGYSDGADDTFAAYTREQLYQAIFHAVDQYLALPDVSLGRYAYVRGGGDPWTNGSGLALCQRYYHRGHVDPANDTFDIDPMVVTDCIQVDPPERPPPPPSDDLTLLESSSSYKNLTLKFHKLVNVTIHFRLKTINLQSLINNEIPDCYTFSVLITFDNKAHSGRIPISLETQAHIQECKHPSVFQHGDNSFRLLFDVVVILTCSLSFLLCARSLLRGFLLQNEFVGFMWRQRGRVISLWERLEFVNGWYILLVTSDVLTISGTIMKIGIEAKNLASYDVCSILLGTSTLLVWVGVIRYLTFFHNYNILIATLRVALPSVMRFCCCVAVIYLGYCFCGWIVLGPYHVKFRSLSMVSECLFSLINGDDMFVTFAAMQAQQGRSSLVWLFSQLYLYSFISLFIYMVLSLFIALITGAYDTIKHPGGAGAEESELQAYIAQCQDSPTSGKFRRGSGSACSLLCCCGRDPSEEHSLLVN
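TRPML1-DL cells, Tet-induced overnight (~16 h, 37 °C) at 1,500 cells/well, were loaded with Ca8 no-wash dye plus quencher for 45-90 min at room temperature. Compounds were pinned during FDSS kinetic reading; agonist 54-4 at EC80 (4 uM final) then added.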
TRPML1 agonist: qHTS for Agonists of the Human Mucolipin Transient Receptor Potential 1 (TRPML1); Mucolipin-1 (Homo sapiens), Q9GZU1; TRPML1-expressing cells, Ca2+ dye fluorescence, FDSS; host cell line not named in the record; reference of the full effect not given here; activation, % (test concentration not listed); 0.12% of 410,000 active; AID 624414, 2012; in the data active = activation above about 50%; inconclusive = about 30% to 50%; inactive = below about 30%; also: 0% is about no effect; the text of the record puts the active cut at 80%
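Agonist activity was taken from a 110 s kinetic Ca2+ dye read on the FDSS after pinning compounds onto TRPML1-DL cells. The cells were seeded at 1,500/well with Tet inducer, incubated about 16 h, then dye-loaded at room temperature.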
Starred values were filed as active, the others as inactive; ? = inconclusive; nt = not tested or not shown; & = joins results of further samples; [ ] = remark or other dose.

SMILES	CtBP-E1A blk	Six1-Eya2 inh	PINK1 modulator	D2 agonist	TRPML1 blocker	TRPML1 agonist
COc1ccc(C(=O)NCCS(=O)(=O)NCc2ccco2)cc1	5.0	-1.5	-3.9%	-3.2	-5.8	0.5
CC1=NN(c2ccc(Br)cc2)C(=O)/C1=C/c1cccs1	4.2	10.2	-0.9%	-5.0	-5.9	-0.1
Cc1ccc(CNS(=O)(=O)c2ccc3c(c2)CCN3C(=O)CCCC(=O)O)cc1	0.4	6.4	1.2%	0.5	22.2	1.4
C(=C\c1ccccc1)/C=N/Nc1nc2ccccc2[nH]1	2.7	-1.4	9.2%	-1.9	-1.2	4.3
Fc1cccc(Nc2nc3ccccc3n3nnnc23)c1	0.0	8.2	8.1%	12.6	3.6	0.0
COc1ccc(NS(=O)(=O)c2cc(NC(=O)C3CCCCC3)ccc2N2CCOCC2)cc1	1.7	2.0	1.7%	0.0	51.6	0.8
CC(OC(=O)/C=C/c1cccc(C(F)(F)F)c1)C(=O)NC1CCCCC1C (stereo unspecified)	-1.2	1.2	1.2%	-2.4	5.2	-0.6
O=C1C2CC=C(Cl)CC2C(=O)N1CCN1CCOCC1 (stereo unspecified)	0.1	-0.9	-0.7%	-2.0	-8.0	-0.7
O=C(c1cc(-c2ccc(Br)cc2)n[nH]1)N1CCN(S(=O)(=O)c2ccc(Br)cc2)CC1	nt	nt	-0.5%	nt	-4.8	1.4
Cc1cccc(NC(=O)C2CCCN(S(=O)(=O)c3cccc4nsnc34)C2)c1 (stereo unspecified)	8.9	-5.1	2.7%[38.3 µM]	-3.0	6.0	0.7
CN(C)c1ccc(CNc2nc(-c3ccccc3)nn2S(C)(=O)=O)cc1	?	?	27.5%	3.1	29.0	4.7
CC(C)C[C@H]1CNC(=O)C(=O)N1C[C@@H]1CCCN1C[C@H](Cc1ccc(O)cc1)N1C[C@H](Cc2ccccc2)N(CC2CCCCCC2)C(=O)C1=O	-2.7	0.4	2.4%	nt	nt	-0.3
O=C(COc1ccccc1)Nc1cccc(-c2nn[nH]n2)c1	1.8	14.3	1.3%	0.0	24.2	-0.5
CCOC(=O)CSc1nc(N)c(C#N)c(-c2ccc(OC)cc2)c1C#N	2.9	-0.3	0.8%	0.2	8.6	3.7
O=C(NNC(=O)c1oc2ccccc2c1-n1cccc1)c1ccco1	-13.8	-3.3	1.6%	1.4	20.0	0.3
Cc1ccccc1C(=O)N1CCC(C(=O)OCC(=O)Nc2cccc([N+](=O)[O-])c2C)CC1	14.1	-0.5	-0.3%	0.1	-7.8	-0.7
O=C(O)C1(c2ccccc2)CCN(S(=O)(=O)c2ccc(Cl)cc2)CC1	-5.7	-9.4	-1.0%	-4.2	4.5	0.3
CCOC(=O)NC(=O)CSc1nnc(SCCC(=O)O)s1	1.9	-4.0	2.0%	-2.0	-4.8	-0.3
CSCCC(NC(N)=O)C(=O)Nc1ccc2ccccc2c1 (stereo unspecified)	-0.9	2.3	3.7%	-3.2	10.2	-0.9
CN(C)CCNC(=O)c1ccccc1-c1cc2ccccc2c(=O)o1	8.5	11.5	1.2%	-0.7	-13.9	0.1
CCOc1ccc(CN(C)C(=O)c2ccc3c(c2)NC(=O)C(C)S3)cc1OC (stereo unspecified)	nt	-3.8	-1.5%	-1.6	9.7	0.0
O=C(NC1CCCCC1)c1cc(S(=O)(=O)N2CCN(c3ccccc3)CC2)ccc1Cl	2.5	0.2	8.4%	-3.1	-3.6	1.6
CNC(=O)c1cc(C(=O)c2ccccc2C(F)(F)F)c[nH]1	1.5	5.2	0.1%	-3.3	23.9	-0.2
CN1C(=O)/C(=C/c2ccccc2OCc2ccccc2)NC1=S	-9.6	-10.7	1.9%	-3.7	6.1	0.5
O=C(CCn1c(=O)c2cccn2c2cccnc21)NCCCN1CCN(c2ccc(F)cc2)CC1	1.5	-4.6	0.4%	-0.9	-10.6	-0.9
COC(=O)C1=C(C)N(Cc2ccccc2)C(=NCCc2ccccn2)N[C@H]1c1cccc(C(F)(F)F)c1	-3.8	-11.3	-1.7%&-0.2%	1.8	-0.3	-0.8&-0.4
CCOC(=O)N/N=C(\C)c1cccs1	1.7	7.6	1.4%	-2.5	7.6	-0.2
COc1cc(C2NC(=S)NC(C)=C2C(=O)Nc2ccc(C)cc2)ccc1O (stereo unspecified)	7.5	-3.4	5.5%	-2.4	-10.7	-0.5
CCN1CCN(c2c(Cl)cccc2NC(=O)c2ccc3c(c2)OCCO3)CC1	-5.8	0.3	-1.7%	-1.7	2.7	-0.2
COc1ccc(C(=O)N/C(=C\c2cn(S(=O)(=O)N(C)C)c3ccccc23)C(=O)NCCCn2ccnc2)cc1	-10.2	-10.3	3.1%&-4.1%	-3.8	8.6&-7.5	-0.6&-0.1

Compounds above with two or more sulfur atoms:
SMILES	CtBP-E1A blk	Six1-Eya2 inh	PINK1 modulator	D2 agonist	TRPML1 blocker	TRPML1 agonist
Cc1cccc(NC(=O)C2CCCN(S(=O)(=O)c3cccc4nsnc34)C2)c1 (stereo unspecified)	8.9	-5.1	2.7%[38.3 µM]	-3.0	6.0	0.7
CCOC(=O)NC(=O)CSc1nnc(SCCC(=O)O)s1	1.9	-4.0	2.0%	-2.0	-4.8	-0.3

The results go on.
SMILES	CtBP-E1A blk	Six1-Eya2 inh	PINK1 modulator	D2 agonist	TRPML1 blocker	TRPML1 agonist
COC(=O)c1ccc(C(=O)OC)c(NC(=O)C(C)(C)C)c1	0.8	3.3	6.9%	-0.3	-5.5	-0.4
CC1=C(C(=O)Nc2ccc(C)cc2C)C(c2ccccc2)n2ncc(C(=O)Nc3ccccc3)c2N1 (stereo unspecified)	nt	nt	0.4%	nt	4.8	3.4
CCOc1ccc(/C=N/n2cc(-c3ccccc3)[nH]c2=S)cc1	?	?	1.9%	0.4	23.2	0.8
O=C(Nc1ccc2c(c1)OCCO2)c1oc2ccccc2c1NC(=O)C1CC1	9.8	1.9	1.4%	8.8	7.9	1.4
NS(=O)(=O)c1cccc(NC(=O)CNC(=O)CC23CC4CC(CC(C4)C2)C3)c1	-1.2	8.7	1.4%	1.9	1.8	-0.6
Cc1cccnc1NC(=O)c1sc2ccccc2c1Cl	-22.4	-10.3	0.5%	-1.0	-1.5	-0.3
Nc1c(-c2nc(-c3ccc(Cl)cc3)cs2)c2ccccn2c1C(=O)c1ccc2c(c1)OCO2	nt	nt	2.5%	nt	-10.8	0.7
C[C@H]1CN([C@@H](C)CO)S(=O)(=O)c2ccc(C#Cc3cccnc3)cc2O[C@@H]1CN(C)C(=O)Nc1ccc2c(c1)OCO2	-0.8	-7.8	-0.9%	-4.2	-6.6	0.5
CC(=O)N(C)c1ccc(N=Nc2c(C)[nH]n(-c3ccccc3)c2=O)cc1	nt	-9.2	3.1%	7.3	nt	nt
Cc1cccc(C)c1NC(=O)N1CC(C)OC(C)C1 (stereo unspecified)	9.9	-4.6	0.4%	6.7	69.1	-0.1
CCOc1ccc(NC(=O)CSc2nncn2C)cc1	-3.8	7.3	-0.7%	0.5	-2.7	-1.0
COc1ccc2c(CC(=O)N(C)CC3COc4ccccc4O3)coc2c1 (stereo unspecified)	-1.3	-1.8	16.5%[38.3 µM]	-4.4	1.9	-0.7
COCc1cc(/C=N\NC(=O)COc2ccc(Cl)cc2)ccc1OC	0.6	4.2	0.9%	-4.7	35.6	0.9
CC(=O)Nc1cccc(-c2nnc(SCC(=O)n3c4c(c5ccccc53)CCCC4)n2C)c1	6.3	5.7	-0.4%	2.2	-10.9	0.1
CCc1ccc2c(c1)C(c1ccc([N+](=O)[O-])cc1)=NNC(c1ccc(Br)cc1)=N2	-3.4	-7.6	3.2%	0.9	-9.0	-0.5
COc1ccc(S(=O)(=O)NCc2cc(=O)n(C)c(=O)n2C)cc1F	0.1	5.4	0.1%	-4.1	-10.9	-0.4
Cc1cc2c(c(SCC(=O)Nc3ccc(C)c(C)c3)n1)C(=O)OC2	8.1	0.7	15.2%	-2.1	0.4	0.4
CC(=O)N1CCN(S(=O)(=O)c2cccc(C(=O)OCN3C(=O)c4ccccc4C3=O)c2)CC1	2.7	-4.6	0.6%	0.4	-0.7	-1.0
CC(C)=CCC[C@](C)(OC1OC(COC2OCC(O)C(O)C2O)C(O)C(O)C1O)C1CC[C@]2(C)C1C(O)CC1[C@@]3(C)CCC(O[C@@H]4O[C@H](CO)C(O)C(O)C4O[C@@H]4OC(CO)C(O)C(O)C4O)C(C)(C)C3CC[C@]12C (stereo partly specified)	0.6	3.0	2.8%	0.3	4.0	0.5
C/C(=N\NC(=O)C(=O)Nc1cccc(Cl)c1C)c1ccncc1	2.5	2.9	4.4%	-7.9	26.5	-0.8
COc1ccc(NC(=O)C2=C(C)Nc3ncnn3C2c2sccc2C)cc1 (stereo unspecified)	nt	nt	9.7%	nt	-6.2	1.4
COc1ccccc1[N+](=O)[O-]	-7.3	2.4	1.7%	-2.8	-8.9	0.2
CCC(CC)NC(=O)Cc1ccccc1OC	9.1	8.2	-0.6%	-0.7	24.0	0.5
CCn1ncc(C(=O)Nc2cccc(Cl)c2)c1C	3.9	3.3	6.6%	-3.3	-7.9	-0.5
O=C(O)CCc1ccc(-c2ccc(Cl)cc2)n1-c1cccc(C(F)(F)F)c1	nt	nt	2.2%	nt	8.1	-0.6
Cc1nnc2ccc(-c3ccc(NS(=O)(=O)c4ccc(Cl)s4)cc3)nn12	nt	-27.4	0.0%	0.3	29.4	-0.5
Cc1sc2c(c1C)c(=O)n(-c1ccccc1)c1nncn21	-2.9	4.5	-1.7%[38.3 µM]	0.9	0.5	-0.4
COC(=O)/C=C1/SC(=NC(=O)c2cccc([N+](=O)[O-])c2)NC1=O	2.8	-1.0	1.3%	-2.2	18.4	-0.5
CCOC(=O)c1sc(NC(=O)c2cccs2)nc1C	0.7	8.2	-1.0%	-0.3	18.5	4.3
CCCc1cc(C(=O)N2CCN(c3ccccc3C)CC2)cs1	24.9	10.9	-1.1%[38.3 µM]	-0.1	18.8	2.1
COc1cc2ncnc(NCc3ccccc3C)c2cc1OC	-7.8	-11.7	-2.5%	-2.3	4.0	-0.7
Cc1ccc(-c2cc(=O)c3cc(F)ccc3[nH]2)cc1	7.1	7.7	5.8%	-1.6	30.1	-0.7
CCOc1ccc(C(=O)Nc2cccc(NC(=O)c3cccs3)c2)cc1[N+](=O)[O-]	nt	-11.4	3.6%	-1.0	19.5	0.8
Cc1cc(C)n(/N=C/c2c[nH]c3ccccc23)c(=O)c1	11.1	5.9	1.5%	-1.3	-12.0	-0.2
COc1ccc(CNC(=O)C2Cc3ccccc3CN2C(=O)c2ccco2)cc1 (stereo unspecified)	3.7	3.0	-1.3%	-1.4	-8.1	0.8
